Bioassay records deposited in PubChem BioAssay by Broad Institute.
Env fusion inh: HIV envelope-mediated fusion inhibition | HeLa-JRFL Env/CEM21 cell fusion, luciferase | 1.1% of 360,000 active | inhibition, % at 12.3 µM | AID 651610;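 active = mean replicate inhibition score of at least 50 and every replicate individually at or above 50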;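 also: 0% = plate neutral controls and 100% = maraviroc near 300 nM; one replicate is shown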
UUG fidelity: yeast start codon fidelity modulation; S. cerevisiae UUG-firefly luciferase reporter, luminescence/redox ratio; activity score, % at 18.7 µM; 0.13% of 350,000 active;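 active = replicate mean at a twofold rise or more, about +100% in these data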;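 also: firefly luciferase made from a UUG start codon reports start codon fidelity; reporter light over untreated wells divided by growth signal over untreated wells; some hits fall short of that in this replicate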
An asterisk follows results filed as active; [ ] = another dose, or the depositor's remark.

UUG fidelity | Env fusion inh | Compound
-4 | 15[16.7 µM] | C[C@H]1CCCCO[C@@H](CN(C)Cc2ccncc2)[C@@H](C)CN([C@@H](C)CO)C(=O)c2cc(NC(=O)Nc3ccc(C(F)(F)F)cc3)ccc2O1
-5 | -10[16.7 µM] | C[C@@H]1CN([C@H](C)CO)C(=O)Cc2cc(NS(=O)(=O)c3ccc(F)cc3)ccc2O[C@@H]1CN(C)C(=O)Nc1ccccc1
-7 | 22[16.7 µM] | Cc1noc(C)c1S(=O)(=O)Nc1ccc2c(c1)C(=O)N([C@@H](C)CO)C[C@H](C)[C@H](CN(C)C(=O)Nc1ccc(C(F)(F)F)cc1)OCCCC[C@H](C)O2
17 | 4[16.7 µM] | C[C@@H]1CN([C@@H](C)CO)C(=O)Cc2cc(NC(=O)C3CC3)ccc2O[C@H]1CN(C)Cc1ccncc1
6 | -11[16.7 µM] | CCCN(C)C[C@@H]1Oc2cc(C#CCOC)ccc2S(=O)(=O)N([C@H](C)CO)C[C@@H]1C
-7 | -44[16.7 µM] | O=C(CN1CCOCC1)NCC[C@@H]1CC[C@@H](NC(=O)Nc2ccc(C(F)(F)F)cc2)[C@@H](CO)O1
2 | 9[16.7 µM] | C[C@@H]1CN([C@@H](C)CO)C(=O)c2cc(NC(=O)Nc3ccc(F)cc3)ccc2O[C@@H](C)CCCCO[C@@H]1CN(C)Cc1ccc(C(=O)O)cc1
19 | -32[16.7 µM] | COc1ccc(S(=O)(=O)N(C)C[C@H]2OCCCC[C@@H](C)Oc3ccc(NC(=O)Cc4ccccc4)cc3C(=O)N([C@@H](C)CO)C[C@H]2C)cc1
150* | 2[16.7 µM] | CCCC#Cc1ccc2c(c1)O[C@@H](CN(C)C(=O)CN(C)C)[C@H](C)CN([C@H](C)CO)S2(=O)=O
13 | -5[16.7 µM] | COc1ccc(NC(=O)N[C@@H]2C=C[C@H](CC(=O)NC3CCC3)O[C@H]2CO)cc1
6 | -25[16.7 µM] | COc1ccc(S(=O)(=O)Nc2ccc3c(c2)CC(=O)N([C@@H](C)CO)C[C@H](C)[C@@H](CN(C)Cc2ccc(-c4ccccc4)cc2)O3)cc1
-8 | -33[16.7 µM] | C[C@H](CO)N1C[C@H](C)[C@@H](CN(C)S(=O)(=O)c2cccs2)OCCCC[C@H](C)Oc2ccc(NC(=O)Nc3cccc4ccccc34)cc2C1=O
6 | 26[16.7 µM] | C[C@H]1CN([C@@H](C)CO)C(=O)Cc2cc(NC(=O)Cc3cn(C)c4ccccc34)ccc2O[C@@H]1CN(C)Cc1ccc2c(c1)OCO2
-5 | 12[16.7 µM] | CCCC(=O)Nc1ccc2c(c1)OC[C@@H](C)N(C(C)=O)C[C@@H](C)[C@@H](OC)CN(C)C2=O
-5 | -2[16.7 µM] | C[C@@H]1CN([C@@H](C)CO)S(=O)(=O)c2ccc(C#CC(C)(C)O)cc2O[C@H]1CN(C)CC1CCCC1
-3 | 8[16.7 µM] | C[C@@H]1CN([C@H](C)CO)C(=O)c2cc(N(C)C)ccc2O[C@@H]1CN(C)C(=O)Nc1ccc2c(c1)OCO2
20 | -8[16.7 µM] | COc1ccc(CN(C)C[C@H]2OCCCC[C@H](C)Oc3ccc(NC(=O)c4ccccc4)cc3C(=O)N([C@@H](C)CO)C[C@@H]2C)cc1
-7 | -6[16.7 µM] | CCCN(C)C[C@@H]1Oc2cc(-c3cncnc3)ccc2S(=O)(=O)N([C@H](C)CO)C[C@@H]1C
-4 | 12[16.7 µM] | COCC#Cc1ccc2c(c1)O[C@@H](CN(C)C(=O)Nc1ccc(OC)cc1)[C@@H](C)CN([C@@H](C)CO)S2(=O)=O
-10 | -13[16.7 µM] | COc1ccc(S(=O)(=O)Nc2ccc3c(c2)C(=O)N([C@H](C)CO)C[C@@H](C)[C@H](CN(C)S(=O)(=O)c2ccc(F)cc2)OCCCC[C@@H](C)O3)cc1
-6 | -6[16.7 µM] | C[C@@H]1CCCCO[C@@H](CN(C)S(=O)(=O)c2cccs2)[C@H](C)CN([C@@H](C)CO)C(=O)c2cc(NS(=O)(=O)c3cccs3)ccc2O1
-5 | -1[16.7 µM] | CS(=O)(=O)N1[C@@H](C#N)[C@H](c2ccc(C#CC3CCCC3)cc2)[C@@H]1CO
-1 | -4[16.7 µM] | C[C@@H]1CCCCO[C@H](CN(C)S(=O)(=O)c2ccc(F)cc2)[C@@H](C)CN([C@H](C)CO)C(=O)c2cc(NS(=O)(=O)c3cccs3)ccc2O1
-7 | 51[16.7 µM] | C[C@H]1CCCCO[C@@H](CN(C)C(=O)CCCN(C)C)[C@@H](C)CN([C@@H](C)CO)C(=O)c2cc(NC(=O)Nc3ccccc3)ccc2O1

Profiles as entered above:
`CCCN(C)C[C@@H]1Oc2cc(-c3cncnc3)ccc2S(=O)(=O)N([C@H](C)CO)C[C@@H]1C` in the list: UUG fidelity: -7; Env fusion inh: -6[16.7 µM]
`C[C@H]1CN([C@@H](C)CO)C(=O)Cc2cc(NC(=O)Cc3cn(C)c4ccccc34)ccc2O[C@@H]1CN(C)Cc1ccc2c(c1)OCO2` in the list: UUG fidelity: 6; Env fusion inh: 26[16.7 µM]

Next section:
UUG fidelity | Env fusion inh | Compound
2 | -8[16.7 µM] | COc1cccc(S(=O)(=O)N[C@H]2CC[C@@H](CCn3cc(-c4ccccc4)nn3)O[C@H]2CO)c1
-10 | -2[16.7 µM] | COc1ccc(S(=O)(=O)N(C)C[C@@H]2Oc3ncccc3C(=O)N([C@H](C)CO)C[C@@H]2C)cc1
-3 | 5[16.7 µM] | C[C@@H]1CN([C@H](C)CO)C(=O)c2cc(NC(=O)CCCN(C)C)ccc2O[C@@H]1CN(C)S(=O)(=O)c1ccccc1
-4 | 2[16.7 µM] | CCC(=O)Nc1ccc2c(c1)C(=O)N(C)[C@H]1CC[C@@H](CC(=O)N[C@@H](C)c3ccccc3)O[C@@H]1CO2
26 | 11[16.7 µM] | C[C@@H]1CCCCO[C@@H](CN(C)Cc2ccc3c(c2)OCO3)[C@@H](C)CN([C@@H](C)CO)C(=O)c2cc(NC(=O)Nc3ccc(F)cc3)ccc2O1
-15 | 8[16.7 µM] | O=C(C[C@H]1C=C[C@H](NC(=O)C2CC2)[C@@H](CO)O1)Nc1nccs1
-5 | 8[16.7 µM] | C[C@H]1CN([C@@H](C)CO)C(=O)c2cccc(NC(=O)Nc3ccccc3)c2O[C@H]1CN(C)C(=O)Nc1ccc(C(F)(F)F)cc1
-2 | -3[16.7 µM] | COc1cccc(CNC(=O)C[C@H]2CC[C@H](NC(=O)C3CCOCC3)[C@@H](CO)O2)c1
18 | 40[16.7 µM] | CO[C@H]1O[C@H](CO)[C@@H](OC(=O)Nc2ccccc2-c2ccccc2)[C@H](OC(=O)Nc2ccccc2)[C@H]1OC(=O)Nc1ccccc1
4 | 19[16.7 µM] | COC(=O)C[C@H]1CC[C@H]2[C@@H](COc3ccc(NC(=O)Nc4ccc(Cl)cc4)cc3C(=O)N2C)O1
0 | -9[16.7 µM] | O=C(CN1CCOCC1)NCC[C@@H]1CC[C@H](NC(=O)Nc2ccc(C(F)(F)F)cc2)[C@H](CO)O1
-7 | -8[16.7 µM] | COc1ccc(S(=O)(=O)N(C)C[C@H]2Oc3ccc(NS(C)(=O)=O)cc3CC(=O)N([C@@H](C)CO)C[C@@H]2C)cc1
13 | 19[16.7 µM] | C[C@@H]1CN([C@@H](C)CO)C(=O)Cc2cc(NC(=O)Nc3ccccc3)ccc2O[C@H]1CN(C)Cc1ccc(Cl)c(Cl)c1
-1 | 0[16.7 µM] | Cc1noc(C)c1NC(=O)N[C@@H]1CC[C@H](CCNC(=O)C2CCCCC2)O[C@@H]1CO
-1 | 33[16.7 µM] | CC(C)NC(=O)N(C)C[C@H]1Oc2ccc(NC(=O)CCCCCC(=O)Nc3ccccc3N)cc2C(=O)N([C@H](C)CO)C[C@H]1C
-6 | 13[16.7 µM] | C[C@@H]1CN([C@@H](C)CO)C(=O)c2cc(C#CC3CCCCC3)cnc2O[C@H]1CN(C)S(=O)(=O)c1ccccc1
-8 | -14[16.7 µM] | C[C@@H]1CCCCO[C@H](CN(C)S(=O)(=O)c2ccccc2)[C@@H](C)CN([C@H](C)CO)C(=O)c2cc(NS(=O)(=O)c3ccc(F)cc3)ccc2O1
7 | 1[16.7 µM] | CCC(=O)N(C)C[C@@H]1Oc2ncc(C#CCc3ccccc3)cc2C(=O)N([C@H](C)CO)C[C@H]1C
14 | -127[16.7 µM] | Cc1noc(C)c1S(=O)(=O)Nc1ccc2c(c1)C(=O)N([C@H](C)CO)C[C@H](C)[C@H](CN(C)C(=O)c1ccccc1)OCCCC[C@H](C)O2
-14 | -2[16.7 µM] | O=C(C[C@H]1CC[C@@H](NC(=O)Nc2ccc3c(c2)OCO3)[C@H](CO)O1)NCc1ccc(F)cc1
-6 | 2[16.7 µM] | C[C@@H]1CN([C@H](C)CO)C(=O)c2cc(NS(=O)(=O)c3ccc(Cl)cc3)ccc2O[C@H]1CN(C)CC1CCCCC1
-2 | 42[16.7 µM] | C[C@@H]1CN([C@H](C)CO)C(=O)Cc2cc(NC(=O)Cn3cnnn3)ccc2O[C@@H]1CN(C)C(=O)Nc1ccc2c(c1)OCO2
7 | 5[16.7 µM] | C[C@H]1CN([C@@H](C)CO)C(=O)Cc2cc(NC(=O)Nc3ccc(F)cc3)ccc2O[C@@H]1CN(C)S(=O)(=O)c1cccs1
-11 | 1[16.7 µM] | C[C@@H]1CN([C@@H](C)CO)C(=O)Cc2cc(NC(=O)C3CC3)ccc2O[C@@H]1CN(C)Cc1ccccc1
-17 | 36[16.7 µM] | CC(C)NC(=O)N(C)C[C@H]1Oc2ccc(NS(=O)(=O)c3cn(C)cn3)cc2C(=O)N([C@@H](C)CO)C[C@H]1C
-4 | -27[16.7 µM] | CC(=O)Nc1ccc2c(c1)C(=O)N(C)[C@H]1CC[C@H](CC(=O)NCCCN3CCOCC3)O[C@H]1CO2
-7 | -2[16.7 µM] | C[C@@H]1CN([C@H](C)CO)S(=O)(=O)c2ccc(-c3cncnc3)cc2O[C@H]1CN(C)C(=O)CC1CC1
7 | -18[16.7 µM] | CC(C)C(=O)Nc1ccc2c(c1)C(=O)N(C)[C@@H]1CC[C@@H](CC(=O)NCc3ccc(F)cc3)O[C@H]1CO2
7 | 6[16.7 µM] | O=C(NCC[C@H]1CC[C@@H](NC(=O)C2CC2)[C@H](CO)O1)c1cc(Cl)cc(Cl)c1
-7 | -6[16.7 µM] | N#C[C@@H]1[C@@H](c2ccc(-c3ccccc3F)cc2)[C@H](CO)N1C(=O)Cc1ccccc1
-13 | -31[16.7 µM] | CC(C)NC(=O)N(C)C[C@H]1OCCCC[C@H](C)Oc2ccc(NC(=O)Nc3cccc4ccccc34)cc2C(=O)N([C@H](C)CO)C[C@@H]1C
3 | -3[16.7 µM] | COc1ccc(CN(C)C[C@H]2OCCCC[C@H](C)Oc3ccc(NS(=O)(=O)c4ccccc4)cc3C(=O)N([C@H](C)CO)C[C@@H]2C)cc1

Among those listed so far, these contain a thiophene ring, fused or not.
UUG fidelity | Env fusion inh | Compound
-8 | -33[16.7 µM] | C[C@H](CO)N1C[C@H](C)[C@@H](CN(C)S(=O)(=O)c2cccs2)OCCCC[C@H](C)Oc2ccc(NC(=O)Nc3cccc4ccccc34)cc2C1=O
-6 | -6[16.7 µM] | C[C@@H]1CCCCO[C@@H](CN(C)S(=O)(=O)c2cccs2)[C@H](C)CN([C@@H](C)CO)C(=O)c2cc(NS(=O)(=O)c3cccs3)ccc2O1
-1 | -4[16.7 µM] | C[C@@H]1CCCCO[C@H](CN(C)S(=O)(=O)c2ccc(F)cc2)[C@@H](C)CN([C@H](C)CO)C(=O)c2cc(NS(=O)(=O)c3cccs3)ccc2O1
7 | 5[16.7 µM] | C[C@H]1CN([C@@H](C)CO)C(=O)Cc2cc(NC(=O)Nc3ccc(F)cc3)ccc2O[C@@H]1CN(C)S(=O)(=O)c1cccs1

(continued)
UUG fidelity | Env fusion inh | Compound
26 | 22[16.7 µM] | COc1ccc([Si](C)(C)[C@H]2[C@H](CCO)O[C@@]3(C(=O)N(Cc4ccc(N5CCOC5=O)cc4)c4ccccc43)[C@@H]2C)cc1
4 | 4[16.7 µM] | CCC(=O)N(C)C[C@H]1Oc2ncc(C#Cc3cccnc3)cc2C(=O)N([C@@H](C)CO)C[C@H]1C
2 | -2[16.7 µM] | O=C(C[C@@H]1C[C@@H]2c3cc(NS(=O)(=O)c4ccc(F)cc4)ccc3O[C@@H]2[C@H](CO)O1)NCc1cccc(F)c1
-2 | 8[16.7 µM] | O=C(Nc1ccc2c(c1)[C@H]1C[C@H](CC(=O)N3CCOCC3)O[C@@H](CO)[C@H]1O2)c1ccc2c(c1)OCO2
31 | 21[16.7 µM] | CC(C)C#Cc1ccc2c(c1)O[C@H](CN(C)C(=O)NC(C)C)[C@H](C)CN([C@H](C)CO)S2(=O)=O
-18 | -11[16.7 µM] | C[C@@H]1CCCCO[C@@H](CN(C)S(=O)(=O)c2ccc(Cl)cc2)[C@@H](C)CN([C@@H](C)CO)C(=O)c2cc(NS(=O)(=O)c3ccc(Cl)cc3)ccc2O1
-6 | -47[16.7 µM] | C[C@@H]1CN([C@H](C)CO)C(=O)c2cccc(NC(=O)Nc3ccc4c(c3)OCO4)c2O[C@H]1CN(C)Cc1ccc2c(c1)OCO2
6 | -3[16.7 µM] | O=C(NCC[C@H]1CC[C@@H](NC(=O)C2CCC2)[C@H](CO)O1)c1cc(Cl)cc(Cl)c1
-10 | -10[16.7 µM] | O=C(C[C@H]1C=C[C@H](NC(=O)Nc2cccc(F)c2)[C@H](CO)O1)NCC1CC1
-12 | 18[16.7 µM] | CO[C@@H]1CN(C)C(=O)c2cc(NC(C)=O)ccc2OC[C@H](C)N(Cc2cncnc2)C[C@@H]1C
11 | 7[16.7 µM] | Cc1ccccc1-c1ccc2c(c1)O[C@@H](CN(C)C(=O)c1ccccn1)[C@@H](C)CN([C@H](C)CO)S2(=O)=O
-3 | 4[16.7 µM] | O=C(CC1CC1)N[C@H]1CC[C@H](CCNS(=O)(=O)c2ccc(F)cc2)O[C@H]1CO
16 | 10[16.7 µM] | C[C@@H]1CN([C@H](C)CO)C(=O)c2cc(NC(=O)Nc3ccccc3)ccc2O[C@@H]1CN(C)S(=O)(=O)c1cn(C)cn1

Not all compounds are listed; the hit share may differ from the screen's.
